PolyA inhibitor – inhibitors of polyadenylation in S. cerevisiae | calls only at 12 µM | S. cerevisiae SKY197-pL101 polyadenylation reporter, beta-gal luminescence; efflux-impaired pdr1/pdr3 knockout yeast; score 100 = 6 SD above DMSO | AID 1875 | 300,000 tested, 0.02% active;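 active = lowest replicate activity score at least 50, where 100 means six control SD above control mean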;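 also: yeast exposed to compound for 9 h at 30 °C; higher score means more reporter readthrough which indicates perturbed polyadenylation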
KCNQ1 act – human KCNQ1 channel potentiation or activation | P51787 | CHO-K1 KCNQ1, thallium flux FluxOR fluorescence; active compounds read high | B-score at 10 µM | 310,000 tested, 0.35% active | AID 2648;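 active = fluorescence ratio B-score, a plate-corrected score, at least three library SD, with initial intensity B-score within 5 SD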
Target sequence (P51787 whole entry, looked up): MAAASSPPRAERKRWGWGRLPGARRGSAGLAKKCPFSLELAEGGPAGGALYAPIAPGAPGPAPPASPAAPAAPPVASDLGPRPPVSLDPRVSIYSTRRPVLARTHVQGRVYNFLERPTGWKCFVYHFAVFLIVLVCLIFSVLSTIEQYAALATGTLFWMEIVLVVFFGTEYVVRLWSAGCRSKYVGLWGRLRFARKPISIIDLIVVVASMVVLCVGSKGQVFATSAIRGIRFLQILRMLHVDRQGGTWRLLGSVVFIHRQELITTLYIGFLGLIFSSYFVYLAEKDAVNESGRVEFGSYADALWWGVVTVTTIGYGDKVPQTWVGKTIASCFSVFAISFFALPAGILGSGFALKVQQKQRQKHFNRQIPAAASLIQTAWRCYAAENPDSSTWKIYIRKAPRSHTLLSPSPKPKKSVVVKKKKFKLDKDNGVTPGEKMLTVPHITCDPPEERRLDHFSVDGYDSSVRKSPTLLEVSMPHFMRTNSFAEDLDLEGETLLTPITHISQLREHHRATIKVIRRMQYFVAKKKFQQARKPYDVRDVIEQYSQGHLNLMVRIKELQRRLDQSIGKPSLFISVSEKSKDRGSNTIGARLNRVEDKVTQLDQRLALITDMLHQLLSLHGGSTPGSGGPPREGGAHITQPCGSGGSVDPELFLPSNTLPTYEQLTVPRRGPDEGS
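Medium – assay buffer, equal DMSO in all wells · Material – CHO-K1 cell line with stable KCNQ1 potassium channel expression · Signal – kinetic FluxOR thallium fluorescence, 10-s 1-Hz baseline, 110-s post-stimulus read · Compound – single concentration per compound, DMSO matched to controls · Schedule – 37 °C overnight plating, 90-min dark dye load, 20-min compound pretreatment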
GSK3 alpha inh – blocks human GSK-3 alpha kinase; P49840; ADP-Glo luminescence, 60 min; inhibition, % at 10 µM; 320,000 tested, 0.1% active;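 in the data active = inhibition above about 50%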;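 also: GST-tagged GSK-3 alpha with peptide substrate and 25 µM ATP; 0% = DMSO neutral wells and 100% = GW8510 positive control wells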
hERG protect – compounds protecting human hERG from proarrhythmic drug block; 310,000 tested, 0.51% active; activation (rescue from dofetilide block), less the hit threshold, % at 10 µM; CHO-hERG, FluxOR thallium flux, dofetilide IC70 present; Q12809; AID 1511;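 active = activation above the mean of controls blocked by dofetilide plus 5 SD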;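 also: thallium influx through hERG after potassium depolarization seen as dye fluorescence rise; in these data hits start at about 4.7%; inactives centre near -7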
DYRK1A inh – Dyrk1A (rat) kinase inhibition; Q63470; ADP-Glo luminescence, NFATc1 peptide; inhibition, % at 12.5 µM; 310,000 tested, 0.43% active; AID 504441; in the data active = inhibition above about 50%;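 also: plate controls were vehicle with enzyme for no effect and no enzyme for full effect; many of its hits are not listed in these tables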
GSK3beta inhib – human GSK3beta kinase inhibition. P49841. GST-GSK3beta kinase, ADP-Glo luminescence, 60 min; active compounds read low. activity score (negative = inhibition), % at 10 µM. 300,000 tested, 0.038% active;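 active = more than half of replicate wells score below -50%, meaning over 50% inhibition versus plate controls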;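 also: 0% = median DMSO wells and -100% = median GW8510 positive control wells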
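test system = GST-tagged human GSK3beta kinase, cell-free | reagent = 25 µM ATP with peptide substrate | dosing = one dose of 10 µM per compound | schedule = 60 min reaction, RT | detection = luminescent ADP-Glo measurement of ADP formed | control set = DMSO neutral wells and GW8510 at 20 µM as positive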
HDAC3 inhib – human HDAC3 inhibition; O15379; recombinant HDAC3, fluorogenic peptide/trypsin coupled, fluorescence; inhibition, % at 8.3 µM; 320,000 tested, 0.15% active; AID 2718; in the data active = inhibition above about 26%, passing the limit was not always enough
KCNQ1 inh – inhibitors of human KCNQ1 potassium channel; 310,000 tested, 1.3% active; P51787; B-score at 10 µM; CHO-K1 KCNQ1, FluxOR thallium flux fluorescence; active compounds read high;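 active = compounds whose thallium flux B-score, printed positive for inhibition, exceeds three library SD while starting fluorescence stays within three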;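 also: channel opened by potassium depolarization with thallium stimulus after 20 min compound exposure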
KCNK3 inh – human KCNK3 channel inhibition, primary screen. O14649. CHO-KCNK3 thallium flux, FluxOR fluorescence; active compounds read low. B-score at 10 µM. 340,000 tested, 0.84% active;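 active = B-score under library mean minus 4 SD, starting fluorescence ratio at most library mean plus 5 SD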;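 also: more negative B-score means stronger inhibition of thallium flux through KCNK3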
RGS4 act – potentiators or activators of RGS4 | AID 463111 | B-score at 10 µM | HEK293 M3R/inducible RGS4, carbachol calcium flux Fluo4; active compounds read low | 310,000 tested, 0.92% active;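 active = B-score of the integrated calcium signal more than 4 SD below the library mean, with starting fluorescence not abnormally high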;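 also: negative B-score means reduced calcium response which marks RGS4 activation or potentiation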
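System: HEK293 FlpIn-TREx cells, stable M3R, doxycycline-inducible RGS4. Timing: overnight RGS4 induction, 30 min dye load 37 °C, 20 min compound RT. Also added: carbachol, ECmax concentration. Measured by: Fluo4 fluorescence kinetic imaging of calcium. Evaluation: integrated calcium ratio converted to B score.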
* = called active by the depositor; i = inactive; x = no result given.

Keys – A = PolyA inhibitor; B = KCNQ1 act; C = GSK3 alpha inh; D = hERG protect; E = DYRK1A inh; F = GSK3beta inhib; G = HDAC3 inhib; H = KCNQ1 inh; I = KCNK3 inh; J = RGS4 act
1) COc1ccc(C(=O)C2CCCN(C(=O)c3ccc(OC)o3)C2)c(C)c1 (stereo not given)
  A: i	B: i	C: 0.2	D: -9.2	E: 1.6	F: 0.1	G: 0.6	H: i	I: i	J: i
2) O=C(NCc1ccccc1)C(=O)NCC(c1ccco1)N1CCN(c2ccccc2F)CC1 (stereo not given)
  A: i	B: i	C: -1.6	D: -15.1	E: -5.2	F: 4.6	G: 0.9	H: i	I: i	J: i
3) O=C1/C(=C/c2ccc(F)cc2)SC(=S)N1NS(=O)(=O)c1ccccc1
  A: i	B: i	C: -4.8	D: -1.0	E: 0.6	F: 1.0	G: 8.6	H: i	I: i	J: i
4) CCN(CC)S(=O)(=O)c1ccc(Cc2ncc(C(F)(F)F)cc2Cl)s1
  A: i	B: i	C: -1.8	D: -0.9	E: 0.1	F: 3.8	G: 0.5	H: i	I: i	J: i
5) Cc1ccc(N(C(=O)c2ccccc2Cl)C2=NC(C)CS2)c(C)c1 (stereo not given)
  A: i	B: i	C: -4.2	D: -5.8	E: -2.1	F: -2.0	G: 5.1	H: i	I: i	J: i
6) O=C(c1ccc2c(c1)OCO2)C1CCCN(Cc2ccccc2OC(F)F)C1 (stereo not given)
  A: i	B: i	C: 1.3	D: -6.3	E: -2.0	F: -9.2	G: -4.4	H: i	I: i	J: -7.7*
7) CCOC(=O)[C@@H]1[C@H]2COc3ccc(Br)cc3[C@@H]2N2C(=O)N(c3ccc(F)cc3)C(=O)[C@@]12C
  A: x	B: x	C: -0.5	D: x	E: 0.0	F: x	G: -10.7	H: x	I: i	J: x
8) CCOc1ccccc1C(=O)N1c2ccccc2Sc2ccccc21
  A: i	B: i	C: -0.7	D: -8.5	E: 8.8	F: 0.1	G: 0.9	H: 8*	I: i	J: i
9) Fc1cccc(Cc2noc(CN3CCN(C4CCc5ccccc5C4)CC3)n2)c1 (stereo not given)
  A: i	B: i	C: -2.9	D: -24.2	E: 4.4	F: -1.4	G: -3.4	H: i	I: i	J: -7.72*
10) CCCCn1nc(C(=O)Nc2nc3c(s2)CCCC3)c2ccccc2c1=O
  A: i	B: i	C: -2.9	D: -6.8	E: 0.6	F: 7.4	G: 5.0	H: i	I: i	J: i

Results in RGS4 act, KCNK3 inh and GSK3 alpha inh (three entries from above):
# | Molecule | RGS4 act | KCNK3 inh | GSK3 alpha inh
1 | COc1ccc(C(=O)C2CCCN(C(=O)c3ccc(OC)o3)C2)c(C)c1 (stereo not given) | i | i | 0.2
2 | O=C(NCc1ccccc1)C(=O)NCC(c1ccco1)N1CCN(c2ccccc2F)CC1 (stereo not given) | i | i | -1.6
3 | O=C1/C(=C/c2ccc(F)cc2)SC(=S)N1NS(=O)(=O)c1ccccc1 | i | i | -4.8

Remaining list, next part
Keys – A = PolyA inhibitor; B = KCNQ1 act; C = GSK3 alpha inh; D = hERG protect; E = DYRK1A inh; F = GSK3beta inhib; G = HDAC3 inhib; H = KCNQ1 inh; I = KCNK3 inh; J = RGS4 act
11) O=c1[nH]c2ccc(Cl)cc2c(-c2ccccc2)c1N1CCN(c2ccccn2)CC1
  A: i	B: i	C: 0.9	D: -8.7	E: -8.1	F: 0.7	G: x	H: i	I: i	J: i
12) Cc1ccc(Nc2nc(CSc3nnc(-c4cccnc4)n3-c3ccccc3F)cs2)cc1
  A: i	B: i	C: 1.0	D: -8.7	E: -2.7	F: -2.9	G: 8.5	H: i	I: i	J: i
13) C=CCc1ccc(OCC(O)COc2ccc(CC=C)cc2OC)c(OC)c1
  A: i	B: i	C: -3.6	D: -13.7	E: 1.2	F: -2.7	G: 9.7	H: i	I: i	J: i
14) Cc1ccc(C)c(NC(=O)CCCCCCCCCCC2COCCO2)c1 (stereo not given)
  A: i	B: i	C: -2.0	D: -3.3	E: -4.0	F: 1.0	G: -3.8	H: i	I: i	J: i
15) Clc1ccc(Oc2nc(Oc3ccc(Cl)cc3)nc(N3CCOCC3)n2)cc1
  A: i	B: i	C: x	D: -13.8	E: 9.0	F: 1.5	G: -5.0	H: i	I: i	J: i
16) CCCC1(C(=O)OC)NC(c2ccc(OC)cc2OC)C2C(=O)N(c3cccc(C(C)=O)c3)C(=O)C21 (stereo not given)
  A: i	B: i	C: -0.5	D: -5.9	E: -0.2	F: 2.0	G: 0.9	H: i	I: i	J: i
17) O=[N+]([O-])c1cc(C(F)(F)F)ccc1Sc1ccc2ccccc2n1
  A: i	B: i	C: -1.5	D: -1.4	E: x	F: 2.8	G: 4.0	H: i	I: i	J: i
18) COc1ccc(C(C#N)N2CCC(c3ccccc3)=N2)cc1 (stereo not given)
  A: i	B: i	C: 2.5	D: -6.1	E: 4.2	F: -3.8	G: 12.8	H: i	I: i	J: i
19) CC(C)Oc1cc(O)c2c(=O)c(-c3ccc(O)cc3)coc2c1
  A: i	B: i	C: -0.4	D: -9.6	E: 9.3	F: 0.5	G: -3.8	H: i	I: i	J: i
20) Cc1oc(C(C)(C)C)cc1C(=O)N1CCN(C(c2ccccc2)c2ccccc2)CC1
  A: i	B: i	C: 0.0	D: -9.5	E: x	F: 1.9	G: -2.8	H: i	I: i	J: i

(further entries)
nr | Compound | PolyA inhibitor | KCNQ1 act | GSK3 alpha inh | hERG protect | DYRK1A inh | GSK3beta inhib | HDAC3 inhib | KCNQ1 inh | KCNK3 inh | RGS4 act
21 | O=C(Nc1ccc(C(=O)N2CCCc3ccccc32)cc1)c1cccs1 | i | i | -2.0 | -9.9 | 0.8 | x | 11.2 | i | i | i
22 | Cc1ccccc1N1CCN(Cc2nc(Cc3ccccc3)no2)CC1 | i | i | -4.6 | -10.2 | x | -0.1 | 6.0 | i | i | i
23 | Cc1c(C(=O)N(Cc2ccccc2)Cc2cccs2)cnn1-c1ccc(Cl)cc1 | i | i | -1.6 | -5.8 | 3.7 | -7.3 | -4.0 | i | i | i
24 | CCN(Cc1ccccc1)C(=O)c1ccc(N(C)S(=O)(=O)c2ccc(C)cc2)cc1 | i | i | -1.4 | -8.2 | x | 2.8 | 3.6 | i | i | i
25 | CCC(Sc1nc2ccsc2c(=O)n1-c1ccc(Cl)c(C)c1)C(=O)NCc1ccco1 (stereo not given) | i | i | x | -12.3 | -2.8 | 0.6 | x | i | i | i
26 | Cc1cccc(NC(=O)NCC2CCN(c3ccc(S(=O)(=O)N4CCOCC4)cc3)CC2)c1 | i | i | -1.5 | -4.1 | -0.6 | -0.6 | -1.7 | i | i | i
27 | O=C(/C=C/c1ccc(Cl)cc1)N1CCN(c2ccc(Cl)cc2[N+](=O)[O-])CC1 | i | i | x | -12.0 | -3.6 | 17.9 | 2.9 | i | i | i
28 | CCN(CCC#N)c1ccc(N2C(=O)CCCC2=O)cc1[N+](=O)[O-] | i | i | -4.4 | 0.8 | -0.7 | 0.3 | 3.5 | i | i | i
29 | Cc1c(NC(=O)COC(=O)c2cc(-c3cccc4ccccc34)nc3ccccc23)c(=O)n(-c2ccccc2)n1C | i | i | -1.2 | -4.1 | -7.9 | -1.3 | 12.7 | i | i | i
30 | COc1ccc(CNC(=O)C[C@H]2C(=O)N(Cc3ccc(OC)cc3)C[C@@H]2Cc2ccccc2)cc1 | i | i | 6.8 | -11.0 | 3.7 | -1.4 | 7.9 | i | i | i
31 | CCCNC(=S)Nc1ccc(Oc2ccccc2)cc1 | i | i | 0.5 | -16.7 | -5.2 | 0.8 | -6.6 | i | i | i
32 | COc1ccc(/C=C/C(=O)c2ccc(O)cc2)cc1COc1ccc(F)cc1 | i | i | -0.1 | -6.5 | x | -5.0 | 14.1 | i | i | i
33 | COc1ccc(OC)c(NC(=O)CSc2nnc(C3CCCCC3)n2-c2ccccc2)c1 | i | i | -0.3 | -7.2 | 11.4 | 0.8 | -1.0 | i | i | i
34 | CC(C)=CCc1c(O)cc(O)c2c(=O)c3c(CC=C(C)C)c(O)ccc3oc12 | i | i | -2.8 | -10.4 | x | 1.2 | 12.0 | i | x | i
35 | CCOc1cc(C(=O)N(C)c2ccccc2)cc(OCC)c1OCC | i | i | -1.1 | -3.8 | -2.8 | 0.9 | -5.1 | i | i | i
36 | COc1c(C(=O)Nc2ccc(Cc3ccncc3)cc2)ccc2ccccc12 | i | i | -1.7 | -9.3 | -2.5 | -0.7 | -8.2 | i | i | -12.7*
37 | Cc1ccc(S(=O)(=O)N2CCC(C(=O)OCc3ccccc3)CC2)cc1C | i | i | -2.9 | -15.6 | -0.7 | 1.7 | -1.6 | i | i | i
38 | CCN(CC)c1ccc(/C=C2\SC(=O)N(C(C)C)C2=O)o1 | i | i | 4.3 | -29.4 | x | 2.2 | 0.9 | i | i | i
39 | Cc1occc1C(=O)N/N=C/C(Br)=C\c1ccccc1 | i | i | 0.1 | -0.7 | 0.7 | 2.7 | 10.0 | i | i | i
40 | Cc1ccccc1S(=O)(=O)c1c(C)cc(C)n(CC(C)C)c1=O | i | i | -0.6 | -10.6 | -3.9 | -3.3 | 4.8 | i | i | i

Gathered by group, those above containing a CF3 group.
nr | Compound | PolyA inhibitor | KCNQ1 act | GSK3 alpha inh | hERG protect | DYRK1A inh | GSK3beta inhib | HDAC3 inhib | KCNQ1 inh | KCNK3 inh | RGS4 act
4 | CCN(CC)S(=O)(=O)c1ccc(Cc2ncc(C(F)(F)F)cc2Cl)s1 | i | i | -1.8 | -0.9 | 0.1 | 3.8 | 0.5 | i | i | i
17 | O=[N+]([O-])c1cc(C(F)(F)F)ccc1Sc1ccc2ccccc2n1 | i | i | -1.5 | -1.4 | x | 2.8 | 4.0 | i | i | i

Screening results as filed in PubChem.

The list is partial; count on the stated rates, not on these rows.
